eIF4H FP inh – inhibitors of RNA binding by human eIF4H; eIF4H fluorescence polarization binding assay; inhibition, % at 35 µM; 290,000 compounds, 0.94% hits; Q15056;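 active = 50% or more with normal probe brightness, or confirmed in later tests; about a fifth of its hits are not listed in these tables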;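 also: calls also rest on retests at 20 µM and on dose response follow-up; 0% = protein and probe with vehicle and 100% = probe without protein; strong numbers were not always called active; many hits fall short of the cut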
CSC inhib – blocks cancer stem cells; cancer stem cell-like cells viability, luminescence; 300,000 compounds, 1.1% hits; inhibition, % at 7.5 µM;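 active = mean at 75% or more and at least half the replicates too; tested in HMLE shEcad cells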;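 also: 0% = median of negative and 100% = median of positive control wells; the first replicate is given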
PABP polyA inh – PABP-poly(A) binding inhibition; P11940; PABP-poly(A) RNA binding, fluorescence polarization; inhibition, % at 35 µM; 290,000 compounds, 1% hits;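 active = 50% or more with normal probe brightness, or confirmed in later tests; about a fifth of its hits are not listed in these tables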;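 also: calls also rest on retests at 20 µM and on dose response follow-up; controls were probe without protein and protein plus probe with vehicle; some compounds called inactive have numbers as strong as hits; many hits fall short of the cut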
Target sequence (P11940 whole entry, looked up): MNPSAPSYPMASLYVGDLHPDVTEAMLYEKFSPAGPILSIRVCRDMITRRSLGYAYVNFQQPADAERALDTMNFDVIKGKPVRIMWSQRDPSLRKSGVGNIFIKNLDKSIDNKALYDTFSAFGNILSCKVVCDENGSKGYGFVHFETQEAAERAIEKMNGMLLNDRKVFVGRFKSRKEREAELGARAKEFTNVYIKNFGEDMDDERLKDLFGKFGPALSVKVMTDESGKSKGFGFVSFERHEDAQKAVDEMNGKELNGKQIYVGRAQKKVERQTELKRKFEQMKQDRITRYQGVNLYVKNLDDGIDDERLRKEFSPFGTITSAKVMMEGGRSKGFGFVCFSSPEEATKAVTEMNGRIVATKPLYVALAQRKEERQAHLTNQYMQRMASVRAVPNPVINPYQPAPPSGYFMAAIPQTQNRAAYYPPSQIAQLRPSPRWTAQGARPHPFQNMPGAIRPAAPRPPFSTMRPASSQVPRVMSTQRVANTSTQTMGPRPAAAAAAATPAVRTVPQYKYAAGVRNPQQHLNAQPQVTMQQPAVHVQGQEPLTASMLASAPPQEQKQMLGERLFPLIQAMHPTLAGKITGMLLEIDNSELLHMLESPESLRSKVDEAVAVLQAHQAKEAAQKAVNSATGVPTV
MT1-MMP act inh – inhibitors of human MT1-MMP activation. P50281. 360,000 compounds, 0.061% hits. GFP/RFP ratio change, % at 20 µM. HT1080 RFP-PRO-GFP cells, GFP/RFP ratio fluorescence, overnight; percent of plate control window, DMSO zero;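 active = GFP/RFP ratio change of at least 30% with cell ATP level not reduced by more than half and red fluorescence within 50% of control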; also: strong numbers were not always called active
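Assay system: HT1080 cells carrying an RFP-PRO-GFP reporter | Dosing: Single dose of 20 µM compound, 1% DMSO final | Incubation: Cells overnight before dosing, compound overnight, 37 °C, 5% CO2 | Evaluation: GFP/RFP fluorescence ratio | Control set: DMSO and RFP-L50D-GFP cell wells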
HIV Env fusion – HIV envelope-mediated fusion inhibition | HeLa-JRFL Env/CEM21 cell fusion, luciferase | AID 651610 | 360,000 compounds, 1.1% hits | inhibition, % at 12.3 µM;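 active = mean replicate inhibition score of at least 50 and every replicate individually at or above 50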;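 also: 0% = plate neutral controls and 100% = maraviroc near 300 nM; one replicate is shown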
Yeast UUG start – modulators of start codon recognition fidelity in yeast. S. cerevisiae UUG-firefly luciferase reporter, luminescence/redox ratio. activity score, % at 18.7 µM. 350,000 compounds, 0.13% hits;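 active = replicate mean at a twofold rise or more, about +100% in these data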;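 also: firefly luciferase made from a UUG start codon reports start codon fidelity; reporter light over untreated wells divided by growth signal over untreated wells; some hits fall short of that in this replicate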
Rce1 inh – inhibitors of yeast Ras-converting enzyme. Q03530. yeast membranes, quenched prenylated peptide cleavage fluorescence. 290,000 compounds, 0.27% hits. AID 2563. calls only;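 active = fall in fluorescence gain of 50% or more versus controls, with final raw signal at or below 3038400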;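 also: plate controls were neutral control wells for no effect and wells lacking membranes for full effect; tested at 10 µM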
Target sequence (Q03530 whole entry, looked up): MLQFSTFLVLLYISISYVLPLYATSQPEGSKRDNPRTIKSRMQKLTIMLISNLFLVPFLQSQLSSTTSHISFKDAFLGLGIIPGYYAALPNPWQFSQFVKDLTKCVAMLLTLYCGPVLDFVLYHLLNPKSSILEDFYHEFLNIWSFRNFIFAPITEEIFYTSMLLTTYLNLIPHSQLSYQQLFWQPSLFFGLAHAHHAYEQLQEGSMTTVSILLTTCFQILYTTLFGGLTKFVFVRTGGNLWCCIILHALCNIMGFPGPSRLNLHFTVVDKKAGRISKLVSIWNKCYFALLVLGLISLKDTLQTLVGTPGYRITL
MT1-MMP act inh RFP – recorded beside MT1-MMP act inh, whose call it bears; RFP signal change, %; measured here: RFP expression control read;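 0 = vehicle wells; hits needed this value within 50% of zero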
* marks the source's active call; other numbers are inactive results; i = inactive; nt = not tested or not shown.

Every second line gives: MT1-MMP act inh | Yeast UUG start | HIV Env fusion | MT1-MMP act inh RFP | PABP polyA inh | CSC inhib | Rce1 inh | eIF4H FP inh
OCCNc1nc(Nc2ccc(O)cc2)nc2ccccc12
→ 3.4 | -17.5 | -20.1 | -4.5 | -3.2 | 1.2 | i | -6.1
Fc1ccc(CNC(=S)Nc2ccc(OC(F)F)cc2)cc1
→ 3.2 | nt | -9.0 | -1.7 | 47.4 | -1.2 | i | -2.5
CC(=O)Nc1ccc(NC(=S)NC(=O)c2oc3ccccc3c2C)cc1
→ 1.6 | -15.5 | 3.3 | -1.9 | -3.4 | 2.2 | i | -10.6
O=C(CSc1nnc(-c2ccc3c(c2)OCCO3)o1)N1CCCC1
→ 0.7 | -46.9 | nt | -1.1 | 1.0 | -9.6 | i | 20.0
CCCC(=O)Nc1sc2c(c1C#N)CCCCC2
→ -1.2 | -11.4 | nt | -1.9 | -5.6 | -4.7 | i | -1.0
COC(=O)N/N=C/c1cc(Cl)cc(Cl)c1OCc1ccc(F)cc1
→ 6.5 | -17.5 | -22.7 | 2.0 | 7.3 | -2.4 | i | -4.4
COc1cc2ncnc(N[C@H](C)c3ccccc3)c2cc1OC
→ 5.0 | 6.1 | nt | -10.5 | -8.7 | nt | i | 0.1
COc1ccc(C(=O)NCCc2nc3cc([N+](=O)[O-])ccc3n2C)cc1
→ 1.3 | nt | 3.9 | -2.9 | -0.4 | -3.0 | i | 0.0
Cc1cccc(C)c1NC(=O)CN1CCN(c2ccc(C(F)(F)F)cn2)CC1
→ 4.3 | -2.1 | 12.5 | 1.4 | nt | nt | nt | nt
COc1ccc(CCN(C)C(=O)C23CC4CC(CC(Cl)(C4)C2)C3)cc1OC
→ -0.6 | -7.5 | 3.9 | -3.9 | 11.5 | -16.8 | i | -16.6
CCOCCOC(=O)C(C)Oc1ccc(Oc2ncc(Cl)cc2Cl)cc1 (stereo unspecified)
→ -4.9 | 2.0 | nt | -0.7 | -4.3 | -8.3 | i | 1.0
CCc1ccccc1-n1nnnc1SCC(=O)Nc1ccc(N2CCN(C)CC2)cc1
→ 0.7 | -12.2 | 7.1 | 1.9 | 3.7 | 22.3 | i | -14.0
Cc1ccc(F)c(NC(=O)CCOc2ccccc2C)c1
→ -10.8 | 6.4 | 8.9 | -0.1 | 0.6 | -4.2 | i | -5.0
CC(=O)OC1CCC2C3CCc4cc(OP(=O)(N5CC5)N5CC5)ccc4C3CCC12C (stereo unspecified)
→ 9.5 | -13.6 | -6.7 | 8.6 | nt | nt | nt | nt
O=C(CC(C(=O)O)c1c(F)cccc1Cl)c1ccc(Cl)cc1 (stereo unspecified)
→ -1.7 | 1.1 | 13.3 | 3.7 | 1.1 | 9.1 | i | 2.7
CC(C)C[C@H](NC(=O)Nc1ccc2c(c1)OCCO2)C(=O)O
→ -1.2 | nt | -29.8 | -0.4 | -0.9 | -7.3 | i | -2.4
O=c1cc(CO)oc(C(Nc2ccccn2)c2ccccc2F)c1O (stereo unspecified)
→ 2.0 | -15.7 | -7.4 | 3.4 | nt | -2.8 | i | nt
CNc1ccc(/C=C/C(=O)c2ccc3c(c2)OCCO3)cc1[N+](=O)[O-]
→ 2.3 | nt | -7.5 | -4.1 | -7.5 | 35.5 | i | 1.7
Cc1ccccc1CCN(C(=O)c1csnn1)C(C(=O)NC1CCCC1)c1ccco1 (stereo unspecified)
→ -7.1 | 1.4 | 30.3 | -1.2 | -2.3 | -5.8 | i | -7.8
COc1cc2c3c(c1)c(N=NC(N)=S)c(O)n3C(C)(C)C=C2C
→ 0.7 | nt | -31.3 | -0.5 | 10.1 | 27.9 | i | 4.4
CCCNC(=O)COC(=O)c1cccnc1Nc1ccccc1F
→ 4.8 | nt | -17.6 | 0.1 | 1.9 | 5.5 | i | 9.8
COc1ccc(C2CC(=O)N(CC(=O)NCC3CCCO3)c3ccccc3S2)cc1 (stereo unspecified)
→ -3.0 | nt | -7.7 | -1.3 | -0.1 | -2.4 | nt | -2.0
O=C(NC12CC3CC(CC(C3)C1)C2)C1CCCN1C(=O)Nc1ccccc1 (stereo unspecified)
→ 1.0 | -11.0 | 0.9 | -0.1 | 10.2 | nt | i | 4.8
Cc1cnc(NC(=O)CSc2nnc(Cc3ccccc3)o2)s1
→ 1.2 | -15.0 | nt | 4.8 | 0.0 | -12.8 | i | 5.4
CCOc1ccc(NC(=O)C2CC3CCC2C3)cc1 (stereo unspecified)
→ 1.6 | 4.4 | -16.3 | 0.3 | nt | -6.6 | i | nt
N#Cc1c(-c2ccccc2)cc(-c2ccccc2)nc1SCc1nnc(-c2ccccc2)o1
→ 0.4 | -10.5 | 2.5 | 1.6 | -1.3 | -5.3 | i | 3.1
Cn1c(=O)c2c(nc(CN3CCN(C(=O)c4ccco4)CC3)n2CC(N)=O)n(C)c1=O
→ 1.5 | -10.0 | 3.0 | 4.6 | nt | 16.4 | i | nt
COCCNC(=O)C1(C)CCCN(Cc2cccc(F)c2)C1 (stereo unspecified)
→ 1.1 | 10.0 | -7.7 | 3.8 | nt | nt | nt | nt
CCCS(=O)(=O)Nc1cccc(-c2nc3cccnc3s2)c1
→ nt | -15.2 | -3.9 | nt | -0.9 | -0.7 | i | -4.5
CCN(CCCNC(=O)Cn1ncc2c([nH]c3ccccc32)c1=O)Cc1ccccc1
→ -1.7 | -14.5 | -0.5 | -0.9 | -11.7 | -7.6 | i | -4.4
CC(C)(C)OC(=O)NC1CCN(S(=O)(=O)c2ccc3c(c2)OCCO3)CC1
→ 0.7 | -17.8 | 8.8 | -9.9 | 4.0 | nt | i | -6.7
COc1ccc([N+](=O)[O-])cc1NCc1ccccc1C
→ 12.7 | -6.0 | nt | 0.7 | 5.9 | 24.5 | i | -3.6
Cc1ccc2nc(SCC(=O)NCc3ccco3)[nH]c2c1
→ 0.3 | -8.6 | -74.5 | -0.3 | 13.1 | 2.8 | i | 14.8
CSc1nsc(SCC(=O)Nc2ccc(NC(C)=O)cc2)n1
→ -3.5 | -10.3 | 0.9 | 1.1 | 6.8 | -3.4 | nt | 2.5
COc1ccc(/C=C/C(=O)N(C)c2ccccc2C(=O)O)cc1
→ -0.5 | nt | 3.9 | 1.4 | 7.5 | -6.7 | i | -4.2
CS(=O)(=O)N(CC(=O)NCc1ccc(Cl)cc1)C1CCCCC1
→ -4.8 | 0.9 | -31.9 | 0.3 | -2.4 | -15.3 | i | 6.7
COc1cc(C(=O)OCC(=O)N(C)c2ccccc2)cc(OC)c1OC
→ 0.3 | -10.7 | 4.2 | 2.3 | 4.1 | -0.6 | i | 10.7
O=C(NN=C1CCCC1)c1cc(Br)ccc1O
→ -0.9 | -13.9 | nt | 1.5 | 0.0 | -10.6 | i | 5.9
CNc1ccc(-c2cccc(C(=O)N3CCOCC3)c2)cn1
→ 1.3 | -9.8 | -1.2 | 1.8 | nt | nt | nt | nt
CC(C)(C)CC(C)(C)N=C1Nc2ccccc2NC12C[C@H]1CCC(=O)N3CC[C@@H](C2)[C@@H]13 (stereo partly specified)
→ -0.9 | -1.2 | -64.3 | -5.3 | nt | nt | nt | nt
COc1ccc(S(=O)(=O)N(C)CC(=O)Nc2cccc(C(C)=O)c2)cc1Cl
→ 0.2 | 7.0 | -18.1 | -0.6 | -0.4 | -8.3 | i | 0.1
O=C(C1=C[C@H](C2CC2)C[C@H](OCc2ccc(CO)cc2)O1)N1CCN(Cc2ccc3c(c2)OCO3)CC1
→ 5.0 | -1.3 | 7.6 | -5.7 | -4.1 | 13.8 | i | -6.2
Cc1ccc(NC(=O)Nc2ccccc2CC[N+](=O)[O-])cc1
→ 0.1 | -11.7 | 43.4 | 1.4 | 5.6 | -7.4 | i | -20.4
Cc1nn(-c2ccccc2)c2c1C(c1ccc([N+](=O)[O-])cc1)C(C#N)=C(N)O2 (stereo unspecified)
→ 1.6 | -10.1 | 1.5 | -3.7 | 4.4 | -1.2 | i | -5.4
O=C(NCCCc1ccccc1)C1CCC(=O)N(Cc2ccc(Cl)cc2)C1 (stereo unspecified)
→ -5.9 | 6.1 | -0.2 | 1.7 | -1.1 | -5.6 | i | -4.8
COc1ccc(NC(=O)CN(C)C(=O)c2ccc(C)s2)cc1
→ 3.4 | 3.1 | nt | 1.9 | -0.6 | -3.6 | i | -2.3
CC(C)(C)c1cc(-c2ccccc2)n[nH]1
→ -2.0 | -15.5 | -25.5 | -1.0 | -7.0 | -13.4 | i | -7.5
COc1cc(Nc2ccc(C(=O)O)cc2[N+](=O)[O-])cc(OC)c1
→ 5.0 | nt | 15.5 | -0.1 | 8.8 | 8.1 | i | 2.4
COc1cccc(C(=O)C(=O)c2cccc(OC)c2OC)c1OC
→ 4.2 | -8.4 | 2.6 | 1.0 | nt | nt | nt | nt
CC(C)(C)OC(=O)C[C@H]1C/C=C\C[C@H](CC(=O)N(CCO)Cc2ccccc2)C(=O)NC[C@H](c2ccccc2)OC1=O
→ -0.4 | 27.7 | -10.8 | -1.1 | nt | -5.3 | nt | nt
CC1Cc2ccccc2N1C(=O)c1cc2c(=O)n3ccccc3nc2n1C (stereo unspecified)
→ -9.1 | -27.7 | 38.4 | -13.9 | 1.1 | 17.9 | i | -11.4
CCCCN(CCCC)NC(=O)c1ccccc1
→ 0.9 | nt | -4.2 | 4.5 | 6.6 | 4.8 | i | 0.1
O=C(O)C(=Cc1ccc([N+](=O)[O-])cc1)CCc1ccccc1
→ 1.2 | -8.8 | -1.2 | -1.4 | nt | nt | nt | nt
Cc1ccc2nc3c(cc(C(=O)NCC4CCCO4)c(=N)n3C3CCCC3)c(=O)n2c1 (stereo unspecified)
→ 1.4 | -11.8 | 3.3 | -0.6 | 19.3 | 1.7 | nt | -1.4
Cc1ccccc1Nc1scc(-c2ccc(Cl)cc2)[n+]1-c1ccccc1C
→ -8.5 | nt | 21.6 | -7.3 | 4.0 | nt | i | 10.1
Cc1ccc(C)c(OCCSc2nnc(-c3cccnc3)n2N)c1
→ -2.5 | -28.6 | 16.3 | -2.6 | -6.9 | nt | i | -4.8
CC(C)(C)c1ccc(C(=O)C2CCCN(C(=O)C3CCOCC3)C2)cc1 (stereo unspecified)
→ 9.5 | 3.6 | 22.6 | 1.0 | 3.3 | -1.4 | i | -2.0
Cc1ccc(S(=O)(=O)N2CCCCC2)cc1NC(=O)[C@@H]1CCCN1C(=O)c1cccs1
→ 4.2 | -11.8 | nt | -3.6 | nt | -8.7 | nt | nt
COc1ccc(NC(=O)[C@@H]2CCCN2S(=O)(=O)c2ccc(Cl)cc2)cc1
→ 0.7 | 4.8 | 0.0 | 2.9 | nt | -8.0 | nt | nt
Cc1cccc(C=CC(=O)c2ccccc2)c1
→ -1.5 | -13.7 | -13.8 | -0.5 | nt | nt | nt | nt

More records:
Every second line gives: MT1-MMP act inh | Yeast UUG start | HIV Env fusion | MT1-MMP act inh RFP | PABP polyA inh | CSC inhib | Rce1 inh | eIF4H FP inh
CCCCOc1ccc(C2C(C(=O)c3ccc(C)o3)=C(O)C(=O)N2CC2CCCO2)cc1 (stereo unspecified)
→ -1.8 | nt | -24.6 | 5.2 | 19.2 | -5.4 | i | 0.8
COCCN1C=C2C(=O)C(C)(OC(=O)C3CCCC3)C(=O)C=C2C=C1c1ccsc1 (stereo unspecified)
→ 4.3 | -6.6 | 13.7 | 8.6 | 61.0* | -13.2 | i | 98.2*
Cc1ccc(-n2nnnc2SCC(=O)NC2CC2)cc1C
→ 3.5 | -13.8 | 14.1 | 3.7 | -5.5 | 18.5 | i | 2.9
COc1ccccc1OCc1nn[nH]n1
→ -2.5 | -9.9 | -133.0 | 0.3 | 6.8 | -15.5 | i | 0.6
O=C(Nc1cc2c(cc1Br)OCCCO2)c1ccccc1
→ 4.8 | nt | -180.8 | 0.1 | -1.5 | -3.4 | i | 9.7

Source: PubChem BioAssay (several laboratories)
